Vaccinia inh – Vaccinia orthopox stage-specific inhibition; Vaccinia-infected cells, mCherry/Venus stage reporter fluorescence; active compounds read low; some inactives read as strong as hits; activity change (mCherry), % (no concentration beside the values); hit rate 0.01% among 89,000;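 active = mCherry past -33% and 40 or more points under the early reporter, replicates agreeing; inconclusive = past -33% without that gap or agreement; tested in A549 cells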;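 note: scaled between vehicle wells and reference inhibitor wells; 23 nL library stock went into each well; one replicate is shown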
Vaccinia inh Venus – also measured in Vaccinia inh; calls as there; activity change (Venus), %; measured here: Venus reporter, other viral stage;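 negative = less Venus signal; first of two replicates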
Active calls of the source: *; ? = inconclusive; . = not tested or not shown; & = joins results of further samples.

mol | Vaccinia inh Venus | Vaccinia inh
CCC(=O)Nc1ccc2c(c1)C(=O)N(C)[C@@H]1CC[C@H](CC(=O)NCc3ccc(OC)cc3)O[C@@H]1CO2 | 2 | 2
CO[C@H]1CN(C)C(=O)c2cc(NC(=O)Nc3c(C)noc3C)ccc2OC[C@@H](C)N(C)C[C@H]1C | -4 | -4
Cc1ccc(S(=O)(=O)N(C)C[C@@H]2OCCCC[C@@H](C)Oc3ccc(NC(=O)Nc4ccc5c(c4)OCO5)cc3C(=O)N([C@@H](C)CO)C[C@H]2C)cc1 | 6 | -8
CCC(=O)N(C)C[C@H]1Oc2ncc(C#Cc3ccc(OC)cc3)cc2C(=O)N([C@@H](C)CO)C[C@@H]1C | 9 | 20
COc1ccc(S(=O)(=O)Nc2ccc3c(c2)C(=O)N([C@H](C)CO)C[C@H](C)[C@@H](CN(C)Cc2ccncc2)O3)cc1 | -3 | 6
COc1ccc(S(=O)(=O)N(C)C[C@H]2Oc3ccc(NC(=O)Nc4cccc5ccccc45)cc3CC(=O)N([C@H](C)CO)C[C@@H]2C)cc1 | 11 | 13
COc1ccccc1-c1ccc2c(c1)[C@H]1[C@H](CCN1S(=O)(=O)c1cn(C)cn1)[C@@H](CO)N2 | -8 | -5
CNC[C@H]1Oc2c(NC(=O)Nc3ccc(F)cc3)cccc2C(=O)N([C@@H](C)CO)C[C@H]1C | 13 | 14
CN1CCN(C(=O)C[C@@H]2CC[C@@H](NC(=O)c3ccc4c(c3)OCO4)[C@H](CO)O2)CC1 | 4 | 3
Cc1ccc(S(=O)(=O)N(C)C[C@H]2Oc3c(NC(=O)c4nc5ccccc5s4)cccc3C(=O)N([C@@H](C)CO)C[C@@H]2C)cc1 | 3 | 5
CC(C)(C)[S@](=O)N1Cc2cc(C(=O)NCc3ccccn3)nc(-c3cccc(-c4ccccc4F)c3)c2[C@@H]1CCO | . | ?
CC(C)COC(=O)N(C)C[C@H]1OCc2ccccc2-c2ccccc2C(=O)N([C@@H](C)CO)C[C@H]1C | 2 | 15
CO[C@@H]1CN(C)C(=O)c2cc(NC(=O)C3CC3)ccc2OC[C@@H](C)N(C(=O)c2ccncc2)C[C@H]1C | 8 | 8
CNC(=O)C[C@@H]1CC[C@@H]2[C@H](COC[C@@H](O)CN2C(=O)Nc2cccc(OC)c2)O1 | 3 | 7
C[C@@H](NC(=O)C[C@H]1C[C@H]2c3cc(NC(=O)CN(C)C)ccc3O[C@H]2[C@@H](CO)O1)c1ccccc1 | 13 | 20
COc1ccc(-c2ccc([C@@H]3[C@H](CO)N4CCCCN(S(=O)(=O)c5cccs5)C[C@@H]34)cc2)cc1 | . | ?
COc1ccc(S(=O)(=O)Nc2ccc3c(c2)C(=O)N([C@H](C)CO)C[C@@H](C)[C@H](CN(C)Cc2ccc(C(=O)Nc4ccccc4N)cc2)O3)cc1 | -6 | 13
O=C(Nc1ccc2c(c1)[C@H]1C[C@H](CC(=O)N3CCCCC3)O[C@@H](CO)[C@H]1O2)NC1CCCC1 | 18 | 17
C[C@H]1CN([C@@H](C)CO)C(=O)c2cc(C3=CCCCC3)cnc2O[C@H]1CN(C)C(=O)C1CCOCC1 | 19 | 22
CO[C@@H](CN(C)Cc1nccs1)[C@@H](C)CN([C@H](C)CO)S(=O)(=O)c1ccc(C)cc1 | -10 | -9
O=C(N[C@H]1CC[C@@H](CCn2cc(-c3ccc(F)cc3)nn2)O[C@@H]1CO)c1cnccn1 | 5 | 6
O=C(C[C@@H]1CC[C@@H]2[C@H](COC[C@H](O)CN2S(=O)(=O)c2cccc(Cl)c2)O1)NC1CCCC1 | -6 | -13
Cc1ccc(S(=O)(=O)Nc2ccc3c(c2)CC(=O)N([C@H](C)CO)C[C@@H](C)[C@H](CN(C)C(=O)Nc2cccc4ccccc24)O3)cc1 | 30 | 23
CO[C@H]1CN(C)C(=O)c2cc(NC(=O)NC(C)C)ccc2OC[C@H](C)N(C)C[C@@H]1C | -10 | -9
C[C@@H]1CN([C@H](C)CO)S(=O)(=O)c2ccc(Br)cc2O[C@@H]1CN(C)Cc1ccncc1 | -17 | -20
O=C(N[C@H]1CC[C@H](CC(=O)N2CCOCC2)O[C@H]1CO)c1ccccn1 | 11 | 17
COc1cccc(CN2[C@H](CO)[C@@H](c3ccccc3)C23CN(C(=O)C2CCCCC2)C3)c1 | 3 | -1
CC(C)NC(=O)N(C)C[C@@H]1OCCCC[C@@H](C)Oc2ccc(NC(=O)Nc3ccc(C(F)(F)F)cc3)cc2C(=O)N([C@@H](C)CO)C[C@@H]1C | 5 | -3
C[C@@H](NC(=O)C[C@H]1C[C@H]2c3cc(NC(=O)c4cccnc4)ccc3O[C@H]2[C@H](CO)O1)c1ccccc1 | 11 | -2
COc1ccc(OC(=O)N(C)C[C@H]2OCc3ccccc3-c3ccccc3C(=O)N([C@H](C)CO)C[C@H]2C)cc1 | -3 | 6
C[C@@H]1CCCCO[C@@H](CN(C)C(=O)Nc2ccc(C(F)(F)F)cc2)[C@H](C)CN([C@H](C)CO)C(=O)c2cc(NS(=O)(=O)c3cccs3)ccc2O1 | -15 | -23
C[C@H]1CN([C@@H](C)CO)C(=O)CCCn2nncc2CO[C@@H]1CN(C)Cc1cccc2c1OCCCO2 | 3 | 8
COc1ccc(S(=O)(=O)N[C@H]2C=C[C@@H](CC(=O)N3CCN(c4ccccc4)CC3)O[C@@H]2CO)cc1 | 21 | 16
C[C@@H]1CCCCO[C@@H](CN(C)C(=O)c2ccncc2)[C@@H](C)CN([C@H](C)CO)C(=O)c2cc(NC(=O)c3ccncc3)ccc2O1 | 3 | 20
C[C@@H]1CCCCO[C@H](CN(C)Cc2ccc(Cl)c(Cl)c2)[C@H](C)CN([C@@H](C)CO)C(=O)c2cc(NC(=O)CCC(F)(F)F)ccc2O1 | . | ?
CC(C)[C@@H](C)NC(=O)N(C)C[C@H]1OCc2ccccc2-c2ccccc2C(=O)N([C@@H](C)CO)C[C@@H]1C | 8 | 29
COc1ccccc1NC(=O)N1CCCCN2[C@H](CO)[C@@H](c3ccc(C#CC4CC4)cc3)[C@@H]2C1 | . | ?
CCCNC(=O)N(C)C[C@@H]1Oc2cc(C#Cc3ccccn3)ccc2S(=O)(=O)N([C@@H](C)CO)C[C@@H]1C | 9 | 9
CO[C@@H](CN(C)S(=O)(=O)c1ccc(F)cc1)[C@@H](C)CN(Cc1ccccc1Cl)[C@H](C)CO | 3 | 2
COc1cccc(CNC(=O)C[C@@H]2C=C[C@@H](NC(=O)C3CCOCC3)[C@@H](CO)O2)c1 | 3 | 15
COCC(=O)N1C[C@@H](C)[C@H](OC)CN(C)C(=O)c2cc(NC(=O)c3cc(C)on3)ccc2OC[C@@H]1C | 13 | 14
Cc1ccccc1S(=O)(=O)NCC[C@H]1CC[C@H](NC(=O)C2CCOCC2)[C@@H](CO)O1 | 5 | -2
Cc1noc(C)c1NC(=O)N(C)C[C@H]1Oc2c(NC(=O)C3CC3)cccc2C(=O)N([C@@H](C)CO)C[C@H]1C | 10 | 1
CCS(=O)(=O)Nc1ccc2c(c1)C(=O)N(C)C[C@H](OC)[C@@H](C)CN(C(=O)NC(C)C)[C@@H](C)CO2 | 5 | 2
COc1ccccc1-c1ccc([C@H]2[C@@H](CO)N(C(=O)NC3CCCCC3)[C@H]2C#N)cc1 | -9 | -19
COCC(=O)N[C@H]1C=C[C@@H](CC(=O)NCc2ccccc2OC)O[C@@H]1CO | 18 | 20
C[C@H]1CN([C@@H](C)CO)C(=O)c2cccc(NC(=O)Nc3ccc(C(F)(F)F)cc3)c2O[C@H]1CN(C)CC1CC1 | -14 | -22
CC(C)NC(=O)Nc1ccc2c(c1)C(=O)N([C@@H](C)CO)C[C@H](C)[C@H](CN(C)S(=O)(=O)c1ccc(F)cc1)OCCCC[C@H](C)O2 | -17 | -19

Laid out differently: 4 of the compounds above.
SMILES: COCC(=O)N1C[C@@H](C)[C@H](OC)CN(C)C(=O)c2cc(NC(=O)c3cc(C)on3)ccc2OC[C@@H]1C
  Vaccinia inh Venus = 13
  Vaccinia inh = 14
SMILES: Cc1ccccc1S(=O)(=O)NCC[C@H]1CC[C@H](NC(=O)C2CCOCC2)[C@@H](CO)O1
  Vaccinia inh Venus = 5
  Vaccinia inh = -2
SMILES: Cc1noc(C)c1NC(=O)N(C)C[C@H]1Oc2c(NC(=O)C3CC3)cccc2C(=O)N([C@@H](C)CO)C[C@H]1C
  Vaccinia inh Venus = 10
  Vaccinia inh = 1
SMILES: CCS(=O)(=O)Nc1ccc2c(c1)C(=O)N(C)C[C@H](OC)[C@@H](C)CN(C(=O)NC(C)C)[C@@H](C)CO2
  Vaccinia inh Venus = 5
  Vaccinia inh = 2

More records follow:
mol | Vaccinia inh Venus | Vaccinia inh
COc1ccc(CNC(=O)N(C)C[C@@H]2OCc3ccccc3-c3c(n(C)c4ccccc34)C(=O)N([C@@H](C)CO)C[C@H]2C)cc1 | . | ?
C[C@@H]1CN([C@@H](C)CO)C(=O)Cc2cc(NC(=O)Nc3cccc4ccccc34)ccc2O[C@@H]1CN(C)Cc1ccc(C(=O)Nc2ccccc2N)cc1 | 1 | 0
C[C@@H](NC(=O)C[C@@H]1CC[C@H](NC(=O)C2CC2)[C@H](CO)O1)c1ccccc1 | 10 | 14
CCCN(C)C[C@H]1Oc2cc(C#Cc3ccc(F)cc3)ccc2S(=O)(=O)N([C@H](C)CO)C[C@@H]1C | -4&-3 | -4&2
C[C@@H]1CN([C@@H](C)CO)S(=O)(=O)c2ccc(-c3ccc(C#N)cc3)cc2O[C@H]1CN(C)Cc1cccc(F)c1 | -15 | -23
CC(=O)N1CC2(C1)[C@H](c1ccc(-c3cccc(F)c3)cc1)[C@H](CO)N2CC1CC1 | -5 | -1
C[C@H]1CN([C@@H](C)CO)C(=O)c2cc(NS(=O)(=O)c3ccc(Cl)cc3)ccc2O[C@H]1CN(C)Cc1ccc2c(c1)OCO2 | -13 | -15
C[C@@H]1CN([C@@H](C)CO)C(=O)c2cccc(NC(=O)Nc3ccccc3)c2O[C@H]1CN(C)CC1CC1 | 10 | 12
CN(C)C(=O)[C@H]1[C@H](CO)[C@H]2Cn3c(ccc(C4=CCCCC4)c3=O)[C@@H]1N2C | 0 | -4
CCS(=O)(=O)NCC[C@@H]1CC[C@H](NS(=O)(=O)c2ccccc2C)[C@H](CO)O1 | 12 | 13
CCNC(=O)C[C@H]1C=C[C@@H](NC(=O)NC2CCCCC2)[C@H](CO)O1 | -6 | -2
N#C[C@@H]1[C@@H](c2ccc(C3=CCCC3)cc2)[C@@H](CO)N1c1nc(-c2ccccc2)cs1 | 3 | 0
Cc1noc(C)c1NC(=O)N(C)C[C@@H]1Oc2ccc(NS(=O)(=O)c3cccs3)cc2C(=O)N([C@@H](C)CO)C[C@H]1C | 4 | 5
CN(C)CC(=O)N[C@@H]1CC[C@H](CCNC(=O)C2CCC2)O[C@@H]1CO | 3 | -3
N#C[C@H]1[C@@H](c2ccccc2C2=CCCC2)[C@H](CO)N1C(=O)C1CCOCC1 | -10 | -16
C[C@H](CO)N1C[C@H](C)[C@H](CN(C)CC2CCCCC2)Oc2c(NC(=O)C3CCCCC3)cccc2C1=O | -3 | -6
C/C=C/c1cnc2c(c1)C(=O)N([C@@H](C)CO)C[C@@H](C)[C@H](CN(C)C(=O)Nc1cccc(OC)c1)O2 | 12 | 14
C[C@@H]1CN([C@@H](C)CO)C(=O)c2cc(NC(=O)CCC(F)(F)F)ccc2O[C@@H](C)CCCCO[C@@H]1CN(C)Cc1ccc(C(F)(F)F)cc1 | . | ?
CCNC(=O)C[C@@H]1CC[C@H]2[C@@H](COc3ccc(NS(C)(=O)=O)cc3C(=O)N2C)O1 | 10 | 7
C[C@H](CO)N1C[C@H](C)[C@H](CN(C)S(=O)(=O)c2cccs2)Oc2ccc(NS(=O)(=O)c3ccccc3)cc2CC1=O | 8 | 13
CNC[C@H]1OCCCC[C@H](C)Oc2ccc(NS(=O)(=O)c3ccc(C)cc3)cc2C(=O)N([C@@H](C)CO)C[C@H]1C | 16 | 17
CCC(=O)N1[C@H](CO)[C@H](c2ccc(-c3cccc(F)c3)cc2)[C@@H]1CN(C)C(C)=O | 6 | 8
CCC(=O)N[C@@H]1C=C[C@@H](CC(=O)NCC2CCCCC2)O[C@@H]1CO | -1 | -9
C[C@@H]1CN([C@@H](C)CO)C(=O)Cc2cc(NS(=O)(=O)c3cccs3)ccc2O[C@H]1CN(C)CC1CCCCC1 | . | ?
CC(=O)Nc1ccc2c(c1)C(=O)N(C)[C@H]1CC[C@H](CC(=O)NCc3ccccc3Cl)O[C@H]1CO2 | -4 | -1
Cc1ccc(-c2cnc3c(c2)C(=O)N([C@@H](C)CO)C[C@@H](C)[C@@H](CN(C)Cc2ccccc2F)O3)cc1 | -19 | -26
Cc1noc(C)c1S(=O)(=O)Nc1ccc2c(c1)CC(=O)N([C@@H](C)CO)C[C@@H](C)[C@@H](CN(C)Cc1ccc3c(c1)OCO3)O2 | 2 | 4
O=C(c1cccc(F)c1)N1CC(=O)N2[C@H](C1)[C@@H](c1ccc(C#Cc3ccc(F)cc3)cc1)[C@@H]2CO | -26 | -20
C[C@H](CO)N1C[C@H](C)[C@@H](CN(C)Cc2ccncc2)Oc2ccc(NS(C)(=O)=O)cc2C1=O | 3 | 11
CC(C)NC(=O)N(C)C[C@H]1Oc2ccc(NC(=O)CCCN(C)C)cc2C(=O)N([C@H](C)CO)C[C@H]1C | -4 | 7
CCCNC(=O)C[C@@H]1CC[C@H]2[C@@H](COc3ccc(NC(=O)CCC)cc3C(=O)N2C)O1 | 3 | 1
C[C@H](CO)N1C[C@H](C)[C@@H](CN(C)Cc2ccc(-c3ccccc3)cc2)Oc2ccc(NS(=O)(=O)c3cccs3)cc2C1=O | -7 | -8
CC(=O)N1CC[C@@H]2[C@@H](CO)N(C)c3ccc(-c4ccccc4)cc3[C@@H]21 | -13 | -4

Screens (PubChem BioAssay)

Some of the compounds tested (hit frequency here may not be typical).
